Menin MLL FP FL = inhibitors of human menin-MLL interaction, wild-type MLL peptide; Fluorescence polarization, fluorescein-MLL peptide displacement from menin; FP activity change, % at 61.4 µM; 290,000 tested, under 10 active; AID 1766; inconclusive = falling polarisation curve, or a change in total fluorescence; inactive = total fluorescence flat and polarisation flat or rising; no compound was filed as active; the % refers to the polarisation; negative = inhibition;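 also: % of control where 0% means no effect; inhibitors lower the polarisation; unlabelled MLL peptide was the positive control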
Sfp inh = blocks B. subtilis Sfp PPTase activity. Q9F4F7. Biochemical Sfp PPTase activity, qHTS. Potency, µM, inactives show max response, negative = inhibition, hits mostly inhibitors. 3.5% of 310,000 active. AID 1490; active = well fitted inhibition curve with a large enough effect; inconclusive = small, poorly fitted or top-dose-only effect, or another doubt; inactive = no such curve, though single readings can be large or run the other way;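 also: the enzyme is Sfp with the accession as filed and its product quenches rhodamine fluorescence; potency is read from the fitted curve at half-maximal effect; 0% = enzyme reaction without inhibitor and -100% = no enzyme wells; top concentration of the series not given in the record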
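Buffer: 50 mM Hepes-Na pH 7.6, 10 mM MgCl2, 0.01% Nonidet P-40, 0.01% BSA. Enzyme 15 nM, pre-exposed to compound 15 min; substrates then added and fluorescence change tracked over 30 min.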
ClpP mod = qHTS Assay for Activators of ClpP. Potency, µM (titrated, usually from 57.5 µM), for inactives: at the highest dose activity change, negative = active. 1.9% of 340,000 active. purified B. subtilis ClpP, FRET peptide cleavage, 20 min. AID 651965, 2013; active = well fitted falling curve with a large enough effect; inconclusive = small, poorly fitted or top-dose-only effect; inactive = no such curve, though single readings can be large or run the other way; also: potency is read from the fitted curve at half-maximal effect; the source files actives as falling curves though it sought activators and does not explain the sign; nearly all actives have a fitted effect of over 65% in size; many hits overshoot -100%
Target sequence (P80244 whole entry, looked up): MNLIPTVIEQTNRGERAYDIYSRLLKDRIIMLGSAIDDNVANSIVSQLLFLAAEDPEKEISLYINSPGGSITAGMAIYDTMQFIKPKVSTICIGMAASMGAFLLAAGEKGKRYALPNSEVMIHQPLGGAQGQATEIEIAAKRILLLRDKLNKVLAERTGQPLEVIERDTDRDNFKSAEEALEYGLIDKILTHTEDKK
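Buffer: 100 mM Tris/HCl pH8, 100 mM KCl, 0.05% low protease BSA, 2.5% glycerol, 0.01% Tween-20. ClpP 10 microg/mL final; 20 min RT; delta FRET normalized to ADEP and DMSO controls.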
PINK1 modulator = changes PINK1 expression; PINK1 immunofluorescence, high-content cytometry, 24 h; Potency, µM (highest dose often 76.6 µM), without a hit: top-dose activation (PINK1 increase), usual class: activators; AID 624263; 0.2% of 410,000 active; active = well fitted activation curve with a large enough effect; inconclusive = small, poorly fitted or top-dose-only effect; inactive = flat fitted curve, though single readings scatter; cell line not stated here;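 also: potency is read from the fitted curve at half-maximal effect; % of control where 0% means no effect; nearly all actives have a fitted effect of over 65% in size; a mitochondrial uncoupler was the plate control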
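Cells are seeded, rested 12 hours, then given compound at five concentrations or DMSO for 24 hours. After fixation, blocking and antibody staining, PINK1 amount and mitochondrial localization are scored; CCCP serves as control.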
gsp ag = gsp mutant agonism. Potency, µM (doses to about 76.9 µM), without a hit: at the top dose activation (cAMP increase), hits mostly activators. 0.13% of 340,000 active. gsp mutant cells, cAMP HTRF, 30 min; control for the full effect not named in the record. AID 624287; active = well fitted activation curve with a large enough effect; inconclusive = small, poorly fitted or top-dose-only effect, or another doubt; inactive = no such curve, though single readings can be large or run the other way; cell line not stated here;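 also: phosphodiesterase inhibitor Ro 20-1724 added with compounds to block cAMP breakdown; potency is read from the fitted curve at half-maximal effect; nearly all actives have a fitted effect of over 60% in size; about a fifth of the inactives were tested at one dose only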
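Cells in DMEM/10% FBS with G418 were pretreated with compounds in DMSO plus […] (300 uM stock) for 30 min at 37C. cAMP was measured by HTRF (cAMP-d2 plus anti-cAMP antibody-K) after 30 min at room temperature.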
D2 ag = human D2 receptor agonism in beta-arrestin assay | P14416 | DiscoveRx PathHunter D2 beta-arrestin, luminescence, 90 min; 100% = 57 uM dopamine signal | activation, % (test concentration not listed) | 0.084% of 360,000 active; in the data active = activation above about 40%; inconclusive = about 15% to 40%; inactive = below about 15%; also: compound concentration not given in the record; the text of the record calls up to 30% inactive
Target sequence (P14416 whole entry, looked up): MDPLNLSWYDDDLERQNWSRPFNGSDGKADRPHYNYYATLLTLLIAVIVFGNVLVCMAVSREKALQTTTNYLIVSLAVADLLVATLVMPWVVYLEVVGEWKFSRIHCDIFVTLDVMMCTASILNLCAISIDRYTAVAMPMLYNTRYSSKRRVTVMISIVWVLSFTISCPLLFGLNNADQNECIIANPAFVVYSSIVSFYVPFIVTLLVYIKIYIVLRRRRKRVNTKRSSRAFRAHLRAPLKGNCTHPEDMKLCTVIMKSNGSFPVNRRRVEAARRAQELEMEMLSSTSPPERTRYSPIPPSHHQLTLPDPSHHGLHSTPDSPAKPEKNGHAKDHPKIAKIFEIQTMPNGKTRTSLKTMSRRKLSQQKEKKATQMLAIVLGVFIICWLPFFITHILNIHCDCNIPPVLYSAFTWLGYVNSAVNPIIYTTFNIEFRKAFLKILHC
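DiscoveRx PathHunter D2 beta-arrestin cells (2,100/well) attached overnight, then compound-stimulated 90 min at 37 C in HBSS/10 mM HEPES/0.1% Tween-20 buffer; beta-galactosidase complementation read by luminescence after 1 h at ambient temperature. Dopamine 57 uM final (EC100) as control.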
gsp antagonist = antagonists of gsp mutant (McCune-Albright syndrome); Potency, µM (series often up to 76.9 µM), for the others: top-dose activity change, negative = inhibition, usual class: inhibitors; gsp-mutant cells, cAMP HTRF, 30 min; control for the full effect not named in the record; 0.4% of 340,000 active; AID 624288; active = falling curve of any shape with a large fitted effect; inconclusive = falling curve, mostly with a smaller effect; inactive = flat or rising curve; cell line not stated here;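 also: intracellular cAMP measured with PDE inhibitor Ro 20-1724 present during compound exposure; potency is read from the fitted curve at half-maximal effect; % is scaled to controls: 0 for no effect and ±100 for the full control effect; nearly all actives have a fitted effect of over 65% in size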
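HTRF cAMP read-out (cAMP-d2 plus anti-cAMP antibody-K in lysis buffer, 30 min RT). Before lysis, cells are exposed to compounds with […] for 30 min at 37C in DPBS containing Ca/Mg, BSA and Tween 20.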
* hit, by the source's call; ? = inconclusive; / = no result given; [ ] = remark or other dose.

Screens in order – Menin MLL FP FL, Sfp inh, ClpP mod, PINK1 modulator, gsp ag, D2 ag, gsp antagonist
- Cn1c(-c2ccccc2)cnc1SCC(=O)N1CCCc2ccccc21
    -0.6, -5%, 1.5%, -0.5%, ?, -1.7, -2%
- O=C(CN(c1ccccc1)S(=O)(=O)c1ccccc1)N1CCOCC1
    -5.0, 17%, /, -1.2%, -4%, -3.6, 4%
- Cc1cccc2c1N(C(=O)c1ccco1)C(C)(C)c1ssc(=S)c1-2
    0.3, -18%, -1.0%, 1.2%, 9%, -3.7, -8%
- Cc1cc(/C=C(\C#N)C(=O)NCc2ccco2)c(C)n1-c1cccnc1
    2.8, 16%, /, 0.2%, ?, -4.1, -18%
- CCCCN(C(=O)c1cc(CN2C(=O)c3ccccc3C2=O)ccc1OC)c1c(N)n(CC(C)C)c(=O)[nH]c1=O
    /, /, -1.8%, -0.9%, -45%[inhibitor], 1.3, 1%
- CC1SC(c2ccc(F)cc2)NC1=O (stereo not drawn)
    -0.6, 10%, /, 9.9%, -47%[inhibitor], 1.6, 12%
- CCn1c(SCc2nc(-c3ccc(OC)c(OC)c3)no2)nnc1-c1cccs1
    -0.9, -2%, -1.3%, -0.2%[38.3 µM], 0%, 1.1, -15%
- Cc1ccc(C)c(CN2C(=O)CSc3ccc(C(=O)N4CCCC4)cc32)c1
    3.0, 25%, /, 3.0%, 7%, -1.3, -14%
- O=S(Cc1cc(Sc2ccccc2)nc(-c2ccccc2)n1)c1ccccc1 (stereo not drawn)
    -1.0, ?, -3.0%, 16%, 2%, -1.9, 2%
- Cc1nnsc1C(=O)Nc1cccc(Cl)c1Cl
    -0.2, 12%, 3.4%, 0.4%, -28%, -5.5, 12%
- CCC1CCC2(CC1)NC(=O)N(CC(=O)Nc1cccc(S(=O)(=O)N(C)c3ccccc3)c1)C2=O (stereo not drawn)
    /, /, 0.3%, 0.3%, -68%[inhibitor], 2.3, 2%
- COc1ccccc1NC(=O)C(=O)N/N=C/c1ccc([N+](=O)[O-])s1
    -4.4, -3%, 0.3%, 3.1%, -34%[inhibitor], -1.8, 7%
- CN1CCN(C(=O)c2c(O)c3cccc4c3n(c2=O)CC4)CC1
    4.3, 13%, -22%, -1.9%, -12%, -2.9, 7%
- COc1ccccc1CN1C(=O)CCC1(C)C(=O)NCc1cccnc1 (stereo not drawn)
    3.2, 15%, 1.3%, 0.3%, 2%, 2.2, 7%
- C#CCNC(=O)C1=C[C@@H](C2CCCCC2)C[C@@H](OCc2ccc(CO)cc2)O1
    3.8, -9%, 0.2%, 0.3%, -45%[inhibitor], -1.3, -1%
- COc1ccc(S(=O)(=O)Nc2ccc3c(c2)C(=O)N([C@H](C)CO)C[C@@H](C)[C@@H](CN(C)S(=O)(=O)c2ccc(Cl)cc2)O3)cc1
    /, /, -1.2%, -0.3%, /, 0.2, -21%
- COc1ccccc1NC(=O)c1csc(-n2nc(C)cc2C(F)(F)F)n1
    -1.0, 18%, -0.6%, /, -22%, -3.6, -12%
- CCC(C(=O)O)n1nc(-c2ccccc2)c2cc(Cl)ccc21 (stereo not drawn)
    -1.2, 8%, 3.8%, -0.7%, ?, 0.6, -11%
- CC(C)CNC(=O)CC1Nc2ccccc2NC1=O (stereo not drawn)
    -3.8, 20%, -1.5%, 2.2%, 10%[15.4 µM], -4.9, -1%
- Cc1sc2ncn(CC(=O)N3CCN(c4ccccc4)CC3)c(=O)c2c1S(=O)(=O)N1CCOCC1
    -5.9, -1%, /, 2.2%, 7%[15.4 µM], -4.3, -3%
- O=C(O)CCNC(=O)c1ccc(Br)o1
    1.3, -14%, 0.4%, -2.9%, -25%, 3.4, 7%
- CCN(CC)c1ccc(NC(=O)CN2CCN(c3ccccn3)CC2)cc1
    1.9, 0%, -2.8%, -1.6%, 10%, 6.7, -2%
- CCCC(c1nnnn1Cc1ccc(OC)cc1)N1CCN(c2ccccc2OC)CC1 (stereo not drawn)
    0.5, -19%, -1.7%, 4.2%, -1%, 0.1, -9%
- COc1cc(/C=N/n2c(C)nc3ccccc3c2=O)ccc1O
    -8.0, 5%, -1.1%, 3.3%, -9%, -3.4, -1%
- COc1ccc(CC(=O)N2CCCC(CNC(=O)c3ccccc3Cl)C2)cc1 (stereo not drawn)
    -1.9, 7%, 1.2%, -0.5%, 1%, 0.7, 0%
- CCN(Cc1ccncc1)C(=O)CCc1nnc(CCc2ccc(OC)cc2)o1
    1.1, 2%, /, 0.0%, -25%, 2.9, -1%
- O=C(CNC(=O)c1ccco1)NCC(=O)OCc1ccc(F)cc1
    0.9, 12%, /, 0.2%, 0%[15.4 µM], 0.5, 15%
- CCN(CC(=O)NCc1ccccn1)S(=O)(=O)c1cc(Cl)ccc1Cl
    /, /, /, 4.3%, 3%[15.4 µM], -1.2, 6%
- Cc1nn(C)c(Cl)c1C(N)=O
    1.2, 8%, /, -1.0%, 5%, 1.6, 11%
- COc1ccc2[nH]c(=O)c(CN(C)C(=O)c3ccncc3)cc2c1
    5.2, 17%, ?, 0.9%[38.3 µM], ?, 2.4, 3%
- Cc1ccccc1N(CC(=O)NC1CCCC1)C(=O)CS(=O)CC(=O)Nc1ccc2c(c1)OCO2 (stereo not drawn)
    -2.1, 5%, 1.6%, -3.1%[38.3 µM], 3%, -4.0, 12%
- CC(=O)Nc1cc(-c2ccc(CO)cc2)cn2c(-c3ccc(F)c(Cl)c3)cnc12
    /, /, ?, -0.3%, /, 7.6, /
- CCCn1c(SCC(=O)N2CCN(c3ccc(OC)cc3)CC2)nc2c1c(=O)n(C)c(=O)n2C
    -3.4, -4%, 1.0%, ?, ?, -1.6, -17%
- O=C(CCN1CCN(C(c2ccccc2)c2ccccc2)CC1)N/N=C/c1ccc(O)cc1O
    0.2, 5%, -4.2%, 2.6%, 8%, -5.0, -29%
- CC(=O)c1ccc(OC(=O)C2c3ccccc3Oc3ccccc32)cc1
    2.4, -3%, -0.4%, 1.7%, ?, -9.7, 0%
- CC(C)NC(=O)N(C)C[C@@H]1OCc2cnnn2CCCC(=O)N([C@@H](C)CO)C[C@H]1C
    /, /, -0.3%, -0.3%, ?, -7.1, /
- O=C(O)c1ccccc1-c1ccc(/C=C2\SC(=O)N(c3ccccc3)C2=O)o1
    ?, -15%, -0.1%, -1.0%, -2%, -6.5, -26%
- COc1ccc(C2CC(c3cccs3)=NN2C(=O)CN2CCCCC2)cc1 (stereo not drawn)
    -9.6, 22%, /, -1.4%, 0%[15.4 µM], -4.6, -7%
- COc1ccc(/C(N)=N/OC(=O)N2CCOCC2)cc1
    -0.6, 24%, /, 8.9%, -13%[15.4 µM], -1.0, 11%
- CCOc1ccccc1/C=N/NC(=O)c1c(C)nc2ccc(Br)cn12
    ?, 11%, -6.9%, -0.6%, 0%, -0.9, -23%
- Cc1ccc(-n2c(-c3ccccc3)cc(=O)nc2C)cc1
    2.8, 7%, 1.3%, /, -11%, 1.4, -7%
- Cc1ccc(S(=O)(=O)N2CCOCC2)cc1NC(=O)CSc1nnc2cc(C)c3ccccc3n12
    -2.1, 3%, -5.3%, -1.3%, 13%[15.4 µM], -2.9, -3%
- Cc1ccc(Cn2cccc(NS(C)(=O)=O)c2=O)cc1
    7.9, -5%, 1.0%, 0.7%, -6%[15.4 µM], -5.3, 11%
- CN(C)/C=N/c1c(C#N)nnn1Cc1ccccc1
    0.4, -1%, -0.2%, -0.6%, 1%, -4.4, -7%
- COc1ccc(-n2c(=O)[nH]cc(C(=O)Nc3ccc(NC(C)=O)cc3)c2=O)cc1
    -1.3, -4%, 0.7%, /, -7%, 0.2, 3%
- C[C@H](NC(=O)c1ccccc1Cl)C(=O)OCC(=O)N1CCN(c2ccccc2)CC1
    /, /, -1.2%, 0.3%, -7%, 0.4, 3%
- COc1cccc(NC(=O)COC(=O)CCCC2=NS(=O)(=O)c3ccccc3N2)c1
    /, 1%, -0.2%, 1.7%, 12%, -4.4, -3%
- COc1ccc(NC(=O)COC(=O)CCSc2ccccc2)cc1
    /, /, -2.3%, -1.9%, -43%[inhibitor], 3.3, 8%
- CCn1cc([N+](=O)[O-])c(C(=O)N2CCCCCC2)n1
    /, 15%, 1.4%, 0.2%, 9%, 1.7, -14%
- Cc1ccc2nc(SCC(=O)Nc3ccc(C)c(Cl)c3)nc(=O)n2c1
    /, /, -0.2%, 8.8%, 22%[15.4 µM], -0.2, -24%
- COc1ccc(S(=O)(=O)N2CCN(C(c3ccccc3)c3ccccc3)CC2)cc1NC(C)=O
    /, 11%, 0.3%, 6.0%, -11%, 2.5, 16%
- CN(C)c1ccc(/C=C2/C=C(c3ccc4c(c3)CCCC4)OC2=O)cc1
    6.0, -3%, -0.1%, 2.4%, 28%, -0.4, 7%
- O=[N+]([O-])c1cccc(/C=N/Nc2nc(N3CCOCC3)nc(N3CCOCC3)n2)c1
    /, -1%, -12%, 1.0%, -2%, 0.9, -8%
- COc1cc(NC(=O)CS(=O)(=O)c2ccc(C)cc2)cc(OC)c1OC
    1.7, 7%, -0.4%, 2.7%, -29%, 0.9, 9%
- Cc1ccc(SCCNC(=O)CN2C(=O)c3ccccc3S2(=O)=O)cc1
    0.2, 14%, 1.9%, 0.6%, 20%, -0.3, -12%

Source: PubChem BioAssay (National Center for Advancing Translational Sciences (NCATS))
